Assay outcomes deposited in PubChem by National Center for Advancing Translational Sciences (NCATS).
Menin-MLL FL inh = qHTS Assay for Inhibitors Targeting the Menin-MLL Interaction in MLL Related Leukemias: Competition With Fluorescein Labeled MLL-derived Peptide; Fluorescence polarization, fluorescein-MLL peptide displacement from menin; FP activity change, % at 61.4 µM; 290,000 tested, under 10 active; AID 1766, 2009; inconclusive = falling polarisation curve, or a change in total fluorescence; inactive = total fluorescence flat and polarisation flat or rising; no compound was filed as active; the % refers to the polarisation; negative = inhibition;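 note: % of control where 0% means no effect; inhibitors lower the polarisation; unlabelled MLL peptide was the positive control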
TRPV1 potentiator = HTS Assay for Compounds that Act as Potentiators of the Vanilloid Receptor 1. potentiation, % at 8.33 µM. TRPV1-expressing cells, Fluo-8 calcium influx, capsaicin EC20 potentiation; host cell line not named in the record; control for the full effect not named in the record. 320,000 tested, 0.02% active; active means potentiation above 80%; inconclusive means 30% to 80%; inactive means below 30%; note: 0% is about no effect
Target sequence (Q8NER1 whole entry, looked up): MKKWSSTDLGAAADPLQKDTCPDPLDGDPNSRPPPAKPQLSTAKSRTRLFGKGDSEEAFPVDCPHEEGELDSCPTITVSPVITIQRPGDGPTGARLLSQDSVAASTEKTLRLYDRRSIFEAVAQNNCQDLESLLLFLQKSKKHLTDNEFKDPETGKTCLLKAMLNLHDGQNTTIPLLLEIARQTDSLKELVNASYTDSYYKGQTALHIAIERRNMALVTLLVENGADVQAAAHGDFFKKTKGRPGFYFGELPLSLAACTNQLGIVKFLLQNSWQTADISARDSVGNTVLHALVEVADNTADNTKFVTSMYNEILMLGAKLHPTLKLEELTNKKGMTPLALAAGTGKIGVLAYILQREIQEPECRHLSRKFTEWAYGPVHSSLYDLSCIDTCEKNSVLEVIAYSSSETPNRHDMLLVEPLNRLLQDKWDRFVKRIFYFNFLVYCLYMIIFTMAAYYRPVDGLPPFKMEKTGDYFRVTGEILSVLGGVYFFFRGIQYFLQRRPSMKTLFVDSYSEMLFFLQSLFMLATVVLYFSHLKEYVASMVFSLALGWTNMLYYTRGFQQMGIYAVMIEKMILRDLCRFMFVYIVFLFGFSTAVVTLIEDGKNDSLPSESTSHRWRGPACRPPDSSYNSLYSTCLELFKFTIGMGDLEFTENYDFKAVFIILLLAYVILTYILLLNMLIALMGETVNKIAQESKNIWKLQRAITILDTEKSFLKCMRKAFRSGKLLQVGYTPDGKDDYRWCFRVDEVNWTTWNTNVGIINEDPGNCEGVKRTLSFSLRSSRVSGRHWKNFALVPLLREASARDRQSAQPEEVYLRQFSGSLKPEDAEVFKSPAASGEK
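TRPV1-expressing cells were cultured overnight at 35.5C and loaded with Fluo-8 calcium dye for 40 to 90 min at room temperature. After a 10 s baseline, compound was added and calcium influx was read kinetically for 3 min (ex 480/em 520 nm).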
PINK1 modulator = A Quantitative High throughput Screen to Identify Chemical Modulators of PINK1 Expression; PINK1 immunofluorescence, high-content cytometry, 24 h; Potency, µM (top dose mostly 76.6 µM), without a hit: at the top dose activation (PINK1 increase), actives largely listed as activators; 410,000 tested, 0.2% active; active = well fitted activation curve with a large enough effect; inconclusive = small, poorly fitted or top-dose-only effect; inactive = flat fitted curve, though single readings scatter; cell line not stated here;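 note: potency is the fitted concentration of half-maximal effect; % of control where 0% means no effect; nearly all actives have a fitted effect of over 65% in size; a mitochondrial uncoupler was the plate control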
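Cells are seeded, rested 12 hours, then given compound at five concentrations or DMSO for 24 hours. After fixation, blocking and antibody staining, PINK1 amount and mitochondrial localization are scored; CCCP serves as control.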
TRPML1 ag = qHTS for Agonists of the Human Mucolipin Transient Receptor Potential 1 (TRPML1) | TRPML1-expressing cells, Ca2+ dye fluorescence, FDSS; host cell line not named in the record; reference of the full effect not given here | Mucolipin-1 (Homo sapiens), Q9GZU1 | 410,000 tested, 0.12% active | activation, % (no concentration beside the values); in the data active = activation above about 50%; inconclusive = about 30% to 50%; inactive = below about 30%; note: 0% is about no effect; the text of the record puts the active cut at 80%
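Tetracycline-induced TRPML1-DL cells are seeded and incubated overnight before loading with a no-wash Ca2+ dye and quencher. Agonist activity is taken from the 110 s fluorescence read following compound pin-transfer on an FDSS, before EC80 54-4 challenge.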
ClpP mod = qHTS Assay for Activators of ClpP; purified B. subtilis ClpP, FRET peptide cleavage, 20 min; Potency, µM (series often up to 57.5 µM), for inactives: at the top dose activity change, negative = active; 340,000 tested, 1.9% active; active = well fitted falling curve with a large enough effect; inconclusive = small, poorly fitted or top-dose-only effect; inactive = no such curve, though single readings can be large or run the other way; note: potency is the fitted concentration of half-maximal effect; the source files actives as falling curves though it sought activators and does not explain the sign; nearly all actives have a fitted effect of over 65% in size; many hits overshoot -100%
Target sequence (P80244 whole entry, looked up): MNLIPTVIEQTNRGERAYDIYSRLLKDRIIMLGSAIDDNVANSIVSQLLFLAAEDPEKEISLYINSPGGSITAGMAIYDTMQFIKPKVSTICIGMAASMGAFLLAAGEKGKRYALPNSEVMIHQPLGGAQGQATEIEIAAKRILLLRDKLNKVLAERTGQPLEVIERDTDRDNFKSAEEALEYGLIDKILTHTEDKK
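FRET quenching reversal measured ClpP activation: 10 microg/mL B. subtilis ClpP at pH 8 with the FRET-FV decapeptide, read at 430 nm after 320 nm excitation. The 20-min minus 0-min signal was scaled between DMSO/no-enzyme wells and ADEP (5.8 microM final).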
Sfp inh = qHTS Assay for Inhibitors of Bacillus subtilis Sfp phosphopantetheinyl transferase (PPTase) | Potency, µM, inactives show max response, negative = inhibition, most hits filed as inhibitors | Biochemical Sfp PPTase activity, qHTS | 310,000 tested, 3.5% active | AID 1490, 2009; active = well fitted inhibition curve with a large enough effect; inconclusive = small, poorly fitted or top-dose-only effect, or another doubt; inactive = no such curve, though single readings can be large or run the other way;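 note: the enzyme is Sfp with the accession as filed and its product quenches rhodamine fluorescence; potency is the fitted concentration of half-maximal effect; 0% = enzyme reaction without inhibitor and -100% = no enzyme wells; top concentration of the series not given in the record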
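With Hepes-Na pH 7.6 buffer containing 10 mM MgCl2, Sfp (15 nM) modified BHQ-2-YbbR (12.5 uM) using rhodamine-CoA (5 uM). Two reads 30 minutes apart at 525/598 nm yielded each well's rate.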
TRPML1 blocker = qHTS for Inhibitors of the Human Mucolipin Transient Receptor Potential 1 (TRPML1) | Mucolipin-1 (Homo sapiens), Q9GZU1 | TRPML1-inducible cells, Ca2+ dye fluorescence, FDSS; stronger effect = lower value; inhibition of EC80 agonist-evoked calcium signal | activity change, negative = inhibition, % (concentration not given with the values) | 390,000 tested, 0.02% active | AID 624415, 2012; in the data active means activity change below about -50%; inconclusive means about -30% to -50%; inactive means above about -30%;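 note: stimulus is agonist 54-4 at its EC80 concentration; % is set by controls: 0 for no effect and ±100 for the full control effect; compound concentration not given in the record; the text of the record puts the active cut at -80%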
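Tet-induced TRPML1-DL cells loaded with Ca8 no-wash calcium dye were read kinetically on FDSS. Compound addition was followed by EC80 agonist 54-4 (4 uM final); inhibition was read over 110 s.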
Active calls of the source: *; ? = inconclusive; nt = no result given; [ ] = another dose, or the depositor's remark.

SMILES | Menin-MLL FL inh | TRPV1 potentiator | PINK1 modulator | TRPML1 ag | ClpP mod | Sfp inh | TRPML1 blocker
CCOC(=O)N1CCC(NS(=O)(=O)c2cc3c(cc2Cl)NC(=O)CO3)CC1 | 2.3 | 9 | 12% | -0.5 | -2.1% | -2% | -5
COc1ccc(CN(C)C(=O)C(CCSC)NS(=O)(=O)c2ccc3c(c2)OCCO3)c(OC)c1OC (stereo not given) | nt | nt | 1.0% | -0.7 | 0.7% | nt | 3
CN(C)S(=O)(=O)c1cccc(NC(=O)COC(=O)COc2ccc(Br)cc2)c1 | -0.5 | -3 | 1.4% | nt | -1.7% | 22% | nt
Cc1noc(C)c1C(=O)N1CCCC(N2CCN(c3cccc(C(F)(F)F)c3)CC2)C1 (stereo not given) | -1.7 | 12 | -0.6% | -0.5 | 1.0% | 2% | 31
CCC(=O)c1ccc(OCC(=O)Nc2nn3cnnc3s2)cc1 | -1.1 | 12 | -1.4% | 1.8 | -3.5% | -17% | -10
O=C(O)CCC(=O)NN1C(=O)c2ccccc2NC1c1ccc(F)cc1 (stereo not given) | 11 | -7 | 3.3% | 0.6 | nt | 3% | -5
Cn1c(SCC2CCCO2)nnc1-c1cccc([N+](=O)[O-])c1 (stereo not given) | 2.6 | -8 | -0.8% | -0.7 | nt | 10% | 11
CCCNC1(C(N)=O)CCN(Cc2ccccc2)CC1 | nt | nt | 1.7% | 1.0 | nt | nt | -21
O=C(CNC(=O)c1ccc(Cl)cc1)NNC(=O)c1ccc(Br)cc1 | nt | nt | -0.9% | 0.3 | 1.5% | nt | -6
Cc1ccc2nc(SCc3nc(-c4ccccc4C)no3)[nH]c2c1 | nt | nt | 1.1% | -1.1 | -4.8% | nt | -2
CCNC(=O)CCS(=O)(=O)c1ccc2ccccc2c1 | 2.2 | -1 | -2.3%[38.3 µM] | -0.6 | -5.3% | ? | -10
N#Cc1c2n(c(=S)n(-c3ccc(OC(F)F)cc3)c1=O)CCCCC2 | -0.1 | 5 | -0.7% | 1.8 | -0.3% | 3% | -16
CCCc1nc2ccccc2c(C(=O)OCC(=O)NCc2ccco2)c1CC | -7.1 | 1 | -1.9%[38.3 µM] | 0.6 | -2.6% | 0% | 37
COc1ccc(C(=O)Nc2c(N)nc(SCC(=O)Nc3ccc(NC(C)=O)cc3)[nH]c2=O)cc1 | nt | 10 | -0.4% | 0.6 | -1.8% | -11% | 5
CCOC(=O)CC1C(=O)NCCN1S(=O)(=O)c1ccc(F)cc1 (stereo not given) | 5.2 | 5 | 0.0% | -1.1 | nt | 15% | 36
CC1(C)NC(=O)N(CC(O)CN(c2ccccc2)S(=O)(=O)c2ccccc2[N+](=O)[O-])C1=O (stereo not given) | -0.8 | 3 | 3.6% | -1.5 | 0.9% | 23% | 10
CCCCNc1c(-c2ccc(-c3ccc(OC)cc3)c(OC)c2)nc2ccccn12 | nt | nt | ? | 0.8 | 4.3% | nt | 60
O=C(Nc1ccc(F)c(Cl)c1)c1ccc2c(Cl)c3c(nc2c1)CCCC3 | nt | nt | 1.5% | 0.9 | -2.5% | nt | -20
COc1ccc(S(=O)(=O)N(C)CC(=O)Nc2ccc3c(c2)OCCO3)cc1OC | 1.9 | 2 | -0.3% | -1.1 | -1.6% | 3% | -8
O=C(Cc1ccccc1[N+](=O)[O-])Nc1cccc(S(=O)(=O)NC2=NCCCCC2)c1 | nt | -13 | -0.5% | -0.5 | -7.7% | nt | -4
COc1ccc(/C=C2/SC(=S)N(CCC(=O)N3CCN(C)CC3)C2=O)cc1 | -3.4 | 26 | 8.3% | -0.2 | -2.5% | -3% | 9
Cc1ccc(S(=O)(=O)N2CCOCC2)cc1C(=O)N1CCN(S(=O)(=O)c2cccs2)CC1 | -5.5 | 6 | 2.1% | -0.4 | 1.3% | 4% | -5
CCCCCCN1C[C@@H](n2cc(-c3ccc(F)cc3)nn2)[C@H](O)C[C@@H]1c1ccccc1 | nt | nt | ? | 0.9 | -1.9% | nt | 7
CCOC(=O)c1sc(N2C(=O)c3oc4ccc(F)cc4c(=O)c3C2c2ccc(C)cc2)nc1C (stereo not given) | nt | nt | 0.4% | -0.2 | -0.3% | nt | nt
Cc1ccc(O)c(-c2cc(C(F)(F)C(F)F)[nH]n2)c1 | 2.3 | 6 | -1.0% | -0.4 | -16% | -11% | -8
COc1cccc(CN2CC(C(=O)N3CCOCC3)CCC2=O)c1 (stereo not given) | 3.1 | 8 | 0.2% | -0.3 | 0.9% | 15% | 1
CCc1nc(N2CCN(C(=O)c3ccco3)CC2)c2c3c(sc2n1)CCCC3 | 2.4 | -6 | -0.2% | -0.1 | -6.3% | -12% | 3
O=C(NNS(=O)(=O)c1ccccc1[N+](=O)[O-])c1cccc([N+](=O)[O-])c1 | -0.7 | 2 | 1.4% | -0.1 | -4.2% | -6% | -23
CCO[C@@H]1OC(C(=O)N2CCN(C)CC2)=C[C@H](C(C)(C)C)[C@H]1CCCO | 0.9 | 11 | -1.4% | -0.2 | -2.1% | -1% | 32
O=[N+]([O-])c1cc(S(=O)(=O)N2CCOCC2)ccc1OCc1cccc(Cl)c1 | nt | 16 | 20% | 0.4 | 1.0% | nt | 23
Cc1ccc(C(=O)N2CCn3c(C)ccc3C2C)cc1 (stereo not given) | ? | 18 | 1.8% | 0.9 | nt | -8% | 9
CC1CCCC(NC(=O)c2ccncc2)C1C (stereo not given) | 0.1 | 7 | 5.7% | 0.9 | -3.6% | 19% | 18
CC(=O)c1ccc(Cc2ccccc2)cc1 | -0.3 | -4 | 0.3% | -0.6 | nt | 12% | -10
C[C@H](CO)N1C[C@H](C)[C@@H](CN(C)C(=O)Nc2ccc3c(c2)OCO3)Oc2ccc(NC(=O)CCN3CCOCC3)cc2C1=O | nt | nt | 1.2% | 0.0 | 0.6% | nt | 42
COc1ccc(C(=O)Oc2c(CN3CCOCC3)cc(Cl)c3cccnc23)cc1 | -2.0 | -5 | 1.0% | -0.1 | 2.3% | -11% | -4
CCOC(=O)NC(C(F)(F)F)(C(F)(F)F)P(=O)(c1ccccc1)c1ccccc1 | 0.0 | 18 | -0.8% | -0.4 | 0.6% | 4% | 3
COc1ccc(-c2c(C)nn3c(-c4ccccc4)cc(C)nc23)cc1OC | nt | nt | -2.2% | -0.6 | -3.4% | nt | 20
COc1ccc(-c2nc3cnc(N4CCOCC4)nc3n(-c3ccc(OC)cc3)c2=O)cc1 | ? | nt | 3.0% | nt | nt | -25% | nt
COc1ccc2nc(NC(=O)CSc3nc4cccnc4n3C)sc2c1 | ? | 11 | 9.0% | -0.1 | -11% | 1% | -12
CN1CCc2c(sc3c2c(=O)n(-c2ccc(Cl)cc2)c2nncn32)C1 | -1.9 | -7 | 0.1% | -0.6 | ? | -22% | -4
CC(C)C[C@H]1CN=C(Nc2ccccc2)N1CC1CCCC1 | -2.6 | -7 | 0.9% | -0.4 | -1.2% | 11% | -22
COc1ccc(C2=CC(=O)C=CC2=O)cc1 | 2.0 | -9 | nt | nt | nt | 3.2µM* | nt
COC(=O)C1(Cc2ccccc2)NC(c2ccc(F)cc2)C2C(=O)N(C)C(=O)C21 (stereo not given) | 0.6 | 7 | -1.0% | -0.6 | 1.0% | -24% | -9
O=C(OCC(=O)N1CCOCC1)c1ccccc1OCc1ccccc1Cl | nt | nt | 0.8% | -0.9 | nt | nt | -6
Cc1cccc2nc(C(F)(F)F)nc(=O)n12 | -1.5 | -11 | 0.5% | -0.2 | ? | 15% | -11

Quoted from the results shown, 2 compounds:
SMILES | Menin-MLL FL inh | TRPV1 potentiator | PINK1 modulator | TRPML1 ag | ClpP mod | Sfp inh | TRPML1 blocker
O=C(OCC(=O)N1CCOCC1)c1ccccc1OCc1ccccc1Cl | nt | nt | 0.8% | -0.9 | nt | nt | -6
Cc1cccc2nc(C(F)(F)F)nc(=O)n12 | -1.5 | -11 | 0.5% | -0.2 | ? | 15% | -11

Carrying on:
SMILES | Menin-MLL FL inh | TRPV1 potentiator | PINK1 modulator | TRPML1 ag | ClpP mod | Sfp inh | TRPML1 blocker
C[C@@H]1CN(S(=O)C(C)(C)C)[C@@H](CCO)/C1=C\CCO (stereo not given in full) | nt | nt | 0.3% | 0.1 | 0.5% | nt | 56
Cc1ccc(-n2ncc3c(=O)[nH]c(SC(C)C)nc32)cc1 | 3.8 | 10 | 0.0% | -1.3 | 0.9% | 10% | -2
COc1ccc(CC(=O)NNC(=O)c2c(-c3ccccc3Cl)noc2C)cc1OC | -4.3 | 1 | 0.3% | -0.4 | 0.2% | 26% | -10
Cc1cc(C)n(C(=O)CNC(=O)c2cccc(F)c2)n1 | -1.3 | 2 | 0.9% | 0.1 | nt | 19% | 4
CCCCN(CCCC)S(=O)(=O)c1ccc(C(=O)Nc2nnc(CSC)o2)cc1 | -1.4 | -18 | 2.4% | 1.4 | -1.1% | 15% | ?
CN(C(=O)Nc1ccc(Cl)cc1Cl)C1CCCC1 | -0.5 | 9 | 3.0% | -1.3 | 0.3% | 7% | -8
COc1ccc(-n2nc(C(=O)Nc3ccc4c(c3)OCO4)c3c4ccccc4n(C)c3c2=O)cc1 | 3.3 | 0 | 0.5% | -0.5 | -2.7% | 11% | -5
Nc1nc(SCC(=O)Nc2ccc([N+](=O)[O-])cc2)[nH]c(=O)c1NC(=O)c1ccc(Br)cc1 | nt | 24 | 0.7% | 0.8 | -2.5% | -7% | 8
CCOCCCNC(=O)C(c1ccccc1)N(Cc1ccc2c(c1)OCO2)C(=O)c1ccccc1O (stereo not given) | 0.8 | -8 | -1.2% | 0.1 | nt | 10% | 14
CC(OC(=O)CCN=C1NS(=O)(=O)c2ccccc21)C(=O)Nc1ccccc1F (stereo not given) | nt | 23 | 2.0% | -0.1 | -3.6% | nt | -6
